# High-throughput results (PubChem BioAssay)
# miR-21 FLuc: miR-21 reporter, rising signal; Potency, µM (series often up to 38.3 µM), inactives show at the top dose reporter change, positive = more light; HeLa miR-21 FLuc reporter, luciferase, 48 h; AID 2288; 340,000 tested, under 10 active; active = well fitted rising curve with a large enough effect; inconclusive = small, poorly fitted or top-dose-only effect; inactive = no such curve, though single readings can be large or run the other way;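 further: % of control where 0% means no effect; miR-21 action dims this reporter so a rising signal means less miR-21 action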
#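 HeLa miR-21-FLuc reporter line, endogenous miR-21; 2000 cells/well in DMEM/10% FBS; compound titration up to ~40uM final, 48 h, 37 degree Celsius; luciferase detection reagent, 15 min lysis, CCD luminescence.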
# An asterisk follows results filed as active; ? = inconclusive.
SMILES,miR-21 FLuc
CCOc1ccc(NC(=O)Cn2cc(C(=O)c3ccc(CC)cc3)c(=O)c3cc(OC)c(OC)cc32)cc1,11%
Cc1cccc(N2CCN(S(=O)(=O)c3cc(Br)cc4c3N(C(=O)C3CC3)CC4)CC2C)c1 (stereo not drawn),8%
Cc1ccc(CNC(=O)c2ccc3c(c2)N(Cc2cccc(C)c2)C(=O)CS3)cc1,8%
O=C(Cn1cc(SCc2ccc(F)cc2)c2ccccc21)N1CCCCC1,-15%
Cc1cccc(N2CCN(C(=O)C3CCN(Cc4nc(-c5ccc(Cl)cc5)oc4C)CC3)CC2)c1C,-1%
O=C(Nc1ccc(Cl)cc1)C1CCN(c2nc3ccccc3n3cccc23)CC1,29%
Cc1ccccc1CN1CCc2nc(N3CCN(c4ncccn4)CC3)ncc2C1,18%
O=C(NCc1ccccc1Cl)C1CCCN(C(=O)c2cnn(-c3ccccc3)c2-n2cccc2)C1 (stereo not drawn),21%
O=S(=O)(c1ccccc1)c1nc(-c2ccccc2F)oc1N1CCOCC1,-8%
COc1cc(-c2noc(-c3ccc(N4CCCCC4)c([N+](=O)[O-])c3)n2)cc(OC)c1OC,1%
COc1cc(C(=O)N(Cc2ccc(N(C)C)cc2)CC2CCCO2)cc(OC)c1OC (stereo not drawn),0%
CCCCc1nn2c(=O)cc(COC(=O)c3ccccc3NC(=O)c3cccs3)nc2s1,-2%
CCOc1ccc(-c2cccc(NS(=O)(=O)c3c(C)cc(C)cc3C)c2)nn1,3%
CCCOc1ccc(CNC(=O)C2CCCN(c3nc4c(C)cc(C)cc4s3)C2)cc1 (stereo not drawn),-2%
Cc1ccc(S(=O)(=O)NCc2nc(-c3cccc(C)c3)no2)cc1,1%
CCOC(=O)c1c(C)oc2nc(C)nc(NCCc3ccc(OCC)c(OCC)c3)c12,1%
CC(NC(=O)c1ccccc1)c1nc2ccccc2n1Cc1ccc(Cl)cc1 (stereo not drawn),-8%
COc1ccccc1NC(=O)C1=C(C)Nc2nc(SCc3ccccc3C)nn2C1CC(C)C (stereo not drawn),-1%
CN(CC(=O)NCc1ccccc1)S(=O)(=O)c1ccc2[nH]c3c(c2c1)CCCC3,-1%
Cc1ccccc1C(=O)Nc1ccccc1-c1nc(-c2ccccc2)no1,0%
CCOc1cc(C#N)c(NC(=O)c2ccc(OC)c(S(=O)(=O)N3CCCC3)c2)cc1OCC,-6%
Nc1nn(-c2ccccc2)nc1C(=O)OCc1c(F)cccc1Cl,-31%
O=C(CSc1nc(=O)n(Cc2ccco2)c2c1CCC2)Nc1ccccc1C(F)(F)F,3%
COc1cc(CN(C(=O)COc2ccc(Cl)c(C)c2)c2ccccn2)cc(OC)c1OC,-17%
CCN1CCSc2ccc(C(=O)NCc3ccc(F)cc3)cc21,4%
# Next section.
SMILES,miR-21 FLuc
Cc1nn(-c2ccc(N3CCCCC3)nn2)c(C)c1CCC(=O)NCc1ccccc1,-14%
COc1cccc(CNC(=O)CSc2ncc(S(=O)(=O)c3ccc(C)c(Cl)c3)c(=O)[nH]2)c1,-1%
CCOc1ccccc1NC(=O)N1c2ccccc2Sc2ccccc21,10%
CCOC(=O)c1ccc(NC(=O)CCC(=O)N2Cc3ccccc3Oc3ncccc32)cc1,?
CCOC(=O)c1cc2c(=O)n3ccccc3nc2n(CCCOC)c1=NC(=O)C(C)(C)Oc1ccc(Cl)cc1,-1%
CCC(C(=O)Nc1ccc(C(C)=O)cc1)n1c(C)c2cnn(-c3ccccc3)c(=O)c2c1C (stereo not drawn),-4%
COC(=O)CSc1nc2sc3c(c2c(=O)n1-c1ccccc1)C(C)CCC3 (stereo not drawn),-8%
COc1ccc2c(c1)CC(C(=O)Nc1ccc(Br)c(C)c1)CO2 (stereo not drawn),-1%
CCCCCOC(=O)c1ccc(Nc2nc(C(=O)OCC)nc3ccccc23)cc1,-4%
CCOC(=O)c1ccc(NC(=O)CCn2ccc(C)n2)cc1,-8%
COc1ccc(N2CCN(C(c3ccc(F)cc3)c3sc4nc(-c5ccco5)nn4c3O)CC2)cc1 (stereo not drawn),0%
Cc1cc(C)cc(-n2c(SCC(N)=O)nc3c(oc4ccccc43)c2=O)c1,18%
Cc1cccc(-n2ncc(C(=O)N3CCOCC3)c2C2CCN(C(=O)OC(C)(C)C)CC2)c1,-2%
Cc1cc(F)ccc1Nc1nc2ccc(Cl)cc2n2cnnc12,-13%
Cc1noc(-c2ccc(-c3noc(-c4ccccc4)n3)cc2)n1,-23%
CCN(c1cccc(C)c1)c1ncnc2c1cnn2-c1cccc(Cl)c1,-37%
Cc1cccc(N2CCN(C(=O)c3ccc4c(c3)NC(=O)C(CSCc3ccc(F)cc3)N4)CC2C)c1 (stereo not drawn),15%
CCc1ccccc1NC(=O)CN1C(=O)COc2ccc(S(=O)(=O)N3CCCCCC3)cc21,-1%
CCOc1ccccc1CNC(=O)CCCN1C(=O)COc2ccc(C)cc21,5%
Cc1ccsc1CN(C(=O)COc1ccccc1Cl)C1CCS(=O)(=O)C1 (stereo not drawn),-8%
Cc1oc(C)c2c(=O)cc(-c3ccc4c(c3)OCO4)cc(OC(=O)c3ccc(Cl)cc3)c12,-1%
Cc1ccc(C)c(N2CCN(C(=O)CSCc3ccccc3Cl)CC2)c1,-9%
CCCCS(=O)(=O)c1oc(-c2ccc(F)cc2)nc1S(=O)(=O)c1ccc(C)cc1,?
Cc1ccccc1C(=O)n1nc(-c2cccnc2)nc1NCc1ccc(F)cc1,2%
COc1cc(OC)c(NS(=O)(=O)c2ccc3oc(=O)c4ncn(C)c4c3c2)cc1Cl,0%
# The results go on:
SMILES,miR-21 FLuc
CC(=O)Nc1c(C)nn(-c2ccccc2)c1N1CCC(C(=O)Nc2ccccc2F)CC1,-4%
CCOc1cccc2c1Oc1nc(-c3ccccc3)nc(SCC(=O)Nc3ccc(F)cc3)c1C2,2%
CCOC(=O)c1c(NC(=O)c2ccccc2OCC)sc2c1CCC(CC)C2 (stereo not drawn),-5%
COc1cccc(CNC(=O)CN2C(=O)N(c3cc(C)ccc3C)S(=O)(=O)c3ccccc32)c1OC,29%
COc1ccc(C2CC(=O)c3cc(-c4nc(-c5cccc(Cl)c5)cs4)c(=O)[nH]c3C2)cc1 (stereo not drawn),-6%
COCCN1CCc2nc(SCC(=O)Nc3ccc(C)c(Cl)c3)[nH]c(=O)c2C1,-2%
Cn1c(NCCCCO)nc2c1c(=O)n(Cc1ccc(Cl)cc1)c(=O)n2C,0%
COc1ccc(NC(=O)Cc2csc(C)n2)cc1,-10%
CCOC(=O)C1CCCN(C(=O)Cn2ncc3c(C)n(Cc4ccccc4F)c(C)c3c2=O)C1 (stereo not drawn),11%
CCCOc1ccccc1Cn1c(=O)sc2ccccc21,-14%
COCCNC(=O)c1ccc2nc(Cc3ccccc3)oc2c1,-29%
O=C(OCC1CCCO1)c1ccc2c(c1)N(Cc1cccc(Cl)c1)C(=O)c1ccccc1S2(=O)=O (stereo not drawn),-1%
Cc1cc(C)c(NC(=O)C(C)n2nc(C)c3sc4ccccc4c3c2=O)c(C)c1 (stereo not drawn),-35%
COc1ccc(Cl)cc1NC(=O)c1cc(S(=O)(=O)N2CCC(C)CC2)cn1C,0%
Cc1cc(C)cc(NC(=O)c2cc(S(=O)(=O)N3CCOCC3)cn2C)c1,1%
Cc1ccc(-c2nc3scc(CCNS(=O)(=O)c4c(C)noc4C)n3n2)cc1,0%
CNC(=O)Cn1cc(S(=O)(=O)Cc2ccccc2F)c2ccccc21,-3%
Cc1ccc(CNC(=O)C(=O)NCC(c2ccco2)S(=O)(=O)c2ccccc2)cc1 (stereo not drawn),2%
Cc1ccc(CCNc2nc3c(S(=O)(=O)c4ccc(C)cc4)nnn3c3ccsc23)cc1,-6%
Cc1nc(-c2ccccc2)sc1CCNC(=O)c1ccco1,-41%
COc1cccc(CN(C(=O)COc2ccc(Cl)c(C)c2)C2CCS(=O)(=O)C2)c1 (stereo not drawn),-6%
CCOc1ccccc1CNC(=O)C1CCN(Cc2cc3ccccc3n2Cc2ccccc2)CC1,14%
CCc1ccc(-n2c(=O)c3sc4ccccc4c3n(CC(=O)N(CC)Cc3ccccc3)c2=O)cc1,-1%
Cc1ccc2oc(C(=O)N(Cc3cccc(F)c3)C3CCS(=O)(=O)C3)c(C)c2c1 (stereo not drawn),-6%
COc1cccc(C2CC(=O)N3CN(C4CCCCC4)CSC3=C2C#N)c1 (stereo not drawn),-2%

# 3 entries out of the list, ordered by number of heavy atoms, largest number first.
SMILES,miR-21 FLuc
O=C(OCC1CCCO1)c1ccc2c(c1)N(Cc1cccc(Cl)c1)C(=O)c1ccccc1S2(=O)=O (stereo not drawn),-1%
Cc1ccc(CNC(=O)C(=O)NCC(c2ccco2)S(=O)(=O)c2ccccc2)cc1 (stereo not drawn),2%
COc1ccc(NC(=O)Cc2csc(C)n2)cc1,-10%

# Following part.
SMILES,miR-21 FLuc
COc1ccc(NC(=O)Cn2c(=O)oc3cc(S(=O)(=O)N4CCCCC4C)ccc32)cc1 (stereo not drawn),0%
CCn1c(=O)c2cc(C(=O)NCCc3ccc(OC)c(OC)c3)sc2c2ccccc21,4%
CCCOc1ccc(C(=O)Nc2ccc3oc(-c4ccc5ccccc5c4)nc3c2)cc1,-19%
Cc1noc(Cn2c(=O)c3ccccc3n(CC(=O)Nc3cccc(Cl)c3C)c2=O)n1,0%
Cc1ccc(-n2c(COCC(=O)O)nc3cccnc32)cc1,7%
COC(=O)c1ccc(NC(=O)C(=O)NCCc2csc3nc(-c4ccccc4F)nn23)cc1,0%
O=C(CSc1nc2c(c(=O)[nH]1)CN(Cc1ccc3c(c1)OCO3)CC2)Nc1cc(F)ccc1F,-2%
Cc1ccc2oc(-c3cc(NC(=O)c4cccs4)cc(C)c3O)nc2c1,-5%
O=C(NCCCc1ccccc1)c1ccc2c(c1)sc1nc(-c3ccc(F)cc3)cn12,-1%
CCN1C(=O)c2ccccc2S(=O)c2ccc(C(=O)NCc3ccc(Cl)cc3)cc21 (stereo not drawn),-1%
Cc1ccc(-c2nc(C(=O)NCc3ccccc3Cl)c3n2CCCCC3)cc1,-6%
Fc1ccc(-c2noc3ncnc(NCCc4ccc(Cl)cc4)c23)cc1,17%
CCOc1ccc(NC(=O)c2ccc3c(c2)CCN3S(=O)(=O)CC)cc1,28%
COc1ccccc1CNc1ncnc2c1nnn2C,3%
CCC1CCCCN1C(=O)Cn1c(=O)n(CCCCCC(=O)NCc2ccccc2)c(=O)c2sccc21 (stereo not drawn),-7%
CCC(=O)N1CCc2cc(Br)cc(S(=O)(=O)N3CCCC(C(=O)Nc4cc(C)ccc4OC)C3)c21 (stereo not drawn),1%
O=C(Nc1cc(Cl)cc(Cl)c1)c1ccc(F)c(S(=O)(=O)N2CCN(c3ccccc3F)CC2)c1,-7%
COc1ccc(-c2c3c(nc4sc(C(=O)Nc5ccc(F)cc5)c(N)c24)CC(C)(C)CC3=O)cc1,1%
O=C(NCc1ccccc1Cl)c1ccc(NC(=O)c2nsc3ccccc23)cc1,-31%
CC(Nc1ccc(-c2nc(-c3ccccn3)no2)cc1[N+](=O)[O-])c1ccccc1 (stereo not drawn),2%
Cc1ccc2occ(CC(=O)Nc3ccc(S(N)(=O)=O)cc3)c2c1,-1%
Cc1ccc2c(c1)-c1onc(C(=O)N(C)c3cccc(C(F)(F)F)c3)c1CO2,-5%
O=C(Cn1ncn2c(cc3ccccc32)c1=O)NCc1ccc(F)cc1,-2%
NS(=O)(=O)c1ccc(NC(=O)CCn2c(=O)oc3ccccc32)cc1,-3%
O=C(Oc1ccc(Cl)cc1)c1cc(-c2ccc3c(c2)OCCO3)on1,-4%
COc1cc(C2NCCc3c2[nH]c2ccccc32)ccc1OC(C)C (stereo not drawn),-27%

# Copied from the list:
# Cc1ccc2c(c1)-c1onc(C(=O)N(C)c3cccc(C(F)(F)F)c3)c1CO2 in miR-21 FLuc reads -5%
# COc1ccc(NC(=O)Cn2c(=O)oc3cc(S(=O)(=O)N4CCCCC4C)ccc32)cc1 (stereo not drawn) in miR-21 FLuc reads 0%
# Cc1ccc2oc(-c3cc(NC(=O)c4cccs4)cc(C)c3O)nc2c1 in miR-21 FLuc reads -5%
# CCN1C(=O)c2ccccc2S(=O)c2ccc(C(=O)NCc3ccc(Cl)cc3)cc21 (stereo not drawn) in miR-21 FLuc reads -1%
# CCOc1ccc(NC(=O)c2ccc3c(c2)CCN3S(=O)(=O)CC)cc1 in miR-21 FLuc reads 28%
# Cc1ccc2occ(CC(=O)Nc3ccc(S(N)(=O)=O)cc3)c2c1 in miR-21 FLuc reads -1%

# Six compounds picked at random from the list so far, as already listed:
SMILES,miR-21 FLuc
CCCOc1ccc(C(=O)Nc2ccc3oc(-c4ccc5ccccc5c4)nc3c2)cc1,-19%
Cc1ccc(-n2c(COCC(=O)O)nc3cccnc32)cc1,7%
O=C(NCCCc1ccccc1)c1ccc2c(c1)sc1nc(-c3ccc(F)cc3)cn12,-1%
COc1ccccc1CNc1ncnc2c1nnn2C,3%
O=C(Nc1cc(Cl)cc(Cl)c1)c1ccc(F)c(S(=O)(=O)N2CCN(c3ccccc3F)CC2)c1,-7%
CCn1c(=O)c2cc(C(=O)NCCc3ccc(OC)c(OC)c3)sc2c2ccccc21,4%

# A portion of the library, so the mix of outcomes need not match the whole.
